High-throughput results from PubChem.
A1 inh = inhibitors of the anti-apoptotic protein A1, read as caspase activation; 330,000 compounds, 0.066% hits; MEF A1-2A-BIM cells, Caspase-Glo 3/7 luminescence, 3 h; percent of clofoctol response, vehicle zero; caspase activation, % (test concentration not listed);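 active = over half of replicate activation scores above 10%, or exactly half above 10 with the replicate mean above 10; inconclusive = replicate mean below 10 yet half the replicates above 10; inactive = over half of replicates below 10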;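 also: wells of about 30 µL received 50 nL stock; many hits fall short of the cut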
rRNA inh HTS = inhibitors of bacterial rRNA selective over humanized ribosomes; E. coli WT GFP vs humanized-ribosome RFP mutants, fluorescence, 24 h; stronger effect = lower value; DMSO median 0, no signal -100; GFP signal change (wild-type ribosome), % (concentration not given with the values); 350,000 compounds, 1.6% hits; AID 720706;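 active = significant combined selectivity score with lowered wild-type GFP, culture density cut under 30%, mutant RFP and density less affected; inactive = any of these conditions unmet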; also: one replicate is shown; some compounds called inactive have numbers as strong as hits
T cruzi inh = T. cruzi replication inhibition; 300,000 compounds, 1.4% hits; T. cruzi beta-gal in NIH3T3, luminescence, 90 h; inhibition, % (concentration not given with the values);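 active = mean inhibition across valid replicates above about 55%, limit read from the data; inconclusive = mean below that limit but half or more replicates reach it; inactive = mean below it, under half of replicates reach it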;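 also: signal also drops with host cell toxicity which is not excluded here; 0% = plate median of DMSO wells and 100% = zero luminescence signal; higher percent means less beta-gal luminescence so fewer parasites; stock transfer was 50 nL into about 50 µL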
AF4-AF9 inh = MLL-AF4/AF9 protein interaction inhibition. AID 651704. P42568. inhibition, % at 10 µM. 350,000 compounds, 0.47% hits. AlphaScreen, biotin-AF4 peptide binding to FLAG-AF9;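 active = every replicate reaching a set inhibition limit, whatever the replicate mean, cut at about 25% in these data; inconclusive = mean inhibition reaches that limit but some replicates miss it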;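 also: 0% = plate neutral control median and 100% = total signal loss; the record names both 10 and 1 µM as test concentration; the first replicate is given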
Target sequence (P42568 whole entry, looked up): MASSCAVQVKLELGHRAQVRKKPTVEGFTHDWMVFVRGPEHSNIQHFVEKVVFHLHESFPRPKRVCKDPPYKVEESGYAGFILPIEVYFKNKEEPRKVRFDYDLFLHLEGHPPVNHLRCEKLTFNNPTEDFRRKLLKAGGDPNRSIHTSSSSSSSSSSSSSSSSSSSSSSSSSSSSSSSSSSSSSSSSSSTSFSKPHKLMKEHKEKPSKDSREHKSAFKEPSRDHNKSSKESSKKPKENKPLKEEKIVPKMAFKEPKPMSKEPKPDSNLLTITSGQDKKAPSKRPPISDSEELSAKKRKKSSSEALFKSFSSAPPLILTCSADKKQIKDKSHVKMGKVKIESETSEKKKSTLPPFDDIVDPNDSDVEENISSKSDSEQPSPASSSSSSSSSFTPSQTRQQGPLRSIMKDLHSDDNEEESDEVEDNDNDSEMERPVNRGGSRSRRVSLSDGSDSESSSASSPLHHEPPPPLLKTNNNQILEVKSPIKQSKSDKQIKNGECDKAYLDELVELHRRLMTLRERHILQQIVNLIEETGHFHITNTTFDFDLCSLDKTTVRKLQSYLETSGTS
RanGTP-Impb inh = inhibitors of RanGTP-importin-beta interaction, primary screen, biochemical, FRET, CFP-Ran, YFP-importin-beta, homogeneous; cell-free CFP-Ran/YFP-importin-beta FRET ratio; inhibition, % (test concentration not listed); 300,000 compounds, 1.1% hits;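 active = most replicates above 15%; inconclusive = exactly half above 15%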;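 also: 0% = DMSO wells and 100% = Ran loaded with GDP instead of GTP; wells of about 40 µL received 100 nL stock; the first replicate is given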
Calb FLC = C. albicans growth modulation with fluconazole; C. albicans CaCi-2 (fluconazole-resistant clinical isolate) + fluconazole, Alamar Blue growth, 48 h; growth inhibition, % (no concentration beside the values); 300,000 compounds, 0.57% hits;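 active = most replicates above 75%; inconclusive = exactly half above 75%; inactive = most below 75%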;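 also: all wells also contain fluconazole at 8 µg/ml as a sub-toxic cotreatment; 0% = median of DMSO wells and 100% = median of geldanamycin control wells; wells of about 8 µL received 7.5 nL stock; the first replicate is given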
Beta apoptosis = blocks beta cell apoptosis; protection from apoptosis, % (concentration not given with the values); INS-1E cytokine-induced death, ATP luminescence, 48 h; percent of positive-control rescue, neutral wells zero; 300,000 compounds, 0.8% hits;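 active = all replicates at 75% or more, or half of them and the mean; inconclusive = half reach 75% but not the mean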;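 also: 0% = cytokine-treated negative control wells and 100% = positive control rescue; higher means more ATP so stronger rescue from cytokine killing; wells of about 40 µL received 100 nL stock; the first replicate is given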
Vif TR-FRET = HIV-1 Vif–A3G interaction blockers – biochemical, TR-FRET, GST-Vif 1-94, biotin-A3G peptide, dose response retest, primary screen (AID 1117319) | one-dose inhibition, %; IC50 in µM for titrated hits | 260,000 compounds, 0.57% hits | TR-FRET GST-Vif / biotin-A3G peptide binding; higher % means a stronger effect; test concentration not given here; strong numbers were not always called active;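 active = above the screen mean plus three standard deviations and confirmed in dose response; inconclusive = results disagree or hit not tested in dose response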;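 also: Vif residues 1-94 fused to GST binding biotinylated APOBEC3G peptide 110-148; 0% = full assay without inhibitor and 100% = GST in place of GST-Vif; retest series ran down from 100 µM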
rRNA inh HTS OD600 = also measured in rRNA inh HTS; calls as there; OD600 change, %; measured here: OD600 growth;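 optical density of the mix in the first replicate; 0 = DMSO median and -100 = no signal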
rRNA inh HTS RFP = further read-out of rRNA inh HTS, marked with its call; RFP signal change, %; measured here: RFP humanized mutant strains;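 first replicate; 0 = DMSO median and -100 = no signal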
* hit, by the source's call; ? = inconclusive; / = no result given. These rows are one share of the data; the hit share may differ from the screen's.

SMILES | A1 inh | rRNA inh HTS | rRNA inh HTS OD600 | rRNA inh HTS RFP | T cruzi inh | AF4-AF9 inh | RanGTP-Impb inh | Calb FLC | Beta apoptosis | Vif TR-FRET
COc1cc(OC)c(C(=O)OCC(=O)Nc2ccc(N3CCOCC3)cc2)cc1OC | 0.1 | 1 | 12 | -3.6 | / | -4.3 | / | / | -1 | 2%
N#C/C(=C\c1ccc([N+](=O)[O-])cc1)C(=O)NCCCn1ccnc1 | -0.2 | 7 | 5 | 1.8 | 0 | 2.3 | -1.8 | -2 | -3 | ?
COc1ccc(OC)c(Nc2nc3nonc3nc2N2CCCCC2)c1 | -0.4 | / | / | / | -1 | / | -2.7 | -19 | 2 | ?
Cn1c(=O)c2c(ncn2CCC(=O)N/N=C/c2ccncc2)n(C)c1=O | -0.2 | 2 | 8 | 1.3 | -2 | -1.8 | 1.6 | -5 | 3 | -2%
COCCN(C(=O)C1CCC1)c1nnc(-c2cccnc2)s1 | 0.8 | / | / | / | 5 | / | -0.3 | / | -4 | 3%
COc1cc(C(=O)Nc2ccc(S(=O)(=O)N(C)c3ccccc3)cc2)cc(OC)c1OC | 1.2 | -15 | -16 | -0.9 | 13 | -1.5 | -3.0 | 14 | 1 | ?
O=[N+]([O-])c1ccc(OCC(O)CN(CCO)CCO)cc1 (stereo not given) | -2.1 | 4 | 5 | -0.5 | -7 | -1.4 | ? | -1 | -1 | /
O=C(Cc1c(F)cccc1Cl)NCc1cccnc1 | 0.4 | 6 | 4 | 2.0 | -4 | 2.5 | 1.4 | -7 | 1 | -4%
Cc1ccc2cccc(OCCCOc3ccccc3CO)c2n1 | -0.2 | -2 | 2 | -0.3 | -7 | -1.8 | 3.2 | 12 | -7 | -3%
O=c1sc(/C=N/Nc2ccccc2)c(Cl)n1Cc1ccccc1 | -1.9 | 5 | 6 | -1.2 | 50 | 1.6 | -2.7 | -21 | 0 | /
Cc1ccc2oc(=O)c3cc(C(=O)N4CCN(C)CC4)sc3c2c1 | 0.2 | 1 | -6 | -2.1 | 6 | -44 | 5.1 | 0 | -7 | -5%
COc1ccc(OCC(=O)OCC(=O)NC2CCCC2)cc1 | 1.8 | / | / | / | / | -1.3 | / | / | -3 | -4%
Cc1nc2ncnn2c(N2CCC(C(=O)NC3CCCC3)CC2)c1Cc1ccccc1 | 0.1 | -19* | -14* | 6.3* | 12 | 3.7 | -0.8 | -26 | / | 9%
C/C(=N/OC(=O)c1cccc(C(F)(F)F)c1)c1cnccn1 | 2.0 | -9 | -11 | -2.0 | -4 | -2.5 | 1.9 | ? | -5 | -9%
COc1nccnc1NS(=O)(=O)c1ccc(NC(=S)NC(=O)/C=C/c2ccccc2)cc1 | 0.4 | / | / | / | 6 | / | -2.5 | -23 | -5 | 13%
Cc1cccc(N2CCN(C(C)C(=O)N3CCc4ccccc43)CC2)c1C (stereo not given) | -0.5 | -35 | -36 | -12 | 15 | -0.8 | -1.9 | 6 | -3 | /
Cn1nc(C(=O)N2CCOCC2)c2ccccc2c1=O | 0.3 | / | / | / | -2 | / | 3.6 | 1 | -4 | /
CCOC(=O)CSc1nnc(Cn2nnc(-c3ccccc3)n2)n1CC | -0.7 | / | / | / | 0 | / | 0.1 | -10 | 2 | -6%
COc1ccccc1OCC(=O)Nc1nnc(C2CCCC2)s1 | 0.3 | -3 | -4 | -0.3 | -7 | -2.1 | -0.8 | -1 | -2 | -2%
CCc1ccc(NC(=O)C(C)Oc2nnc(-c3cccs3)c(-c3cccs3)n2)cc1 (stereo not given) | 0.8 | / | / | / | 21 | / | 3.2 | -21 | -4 | 3%

Entries listed so far with an aryl methoxy group:
SMILES | A1 inh | rRNA inh HTS | rRNA inh HTS OD600 | rRNA inh HTS RFP | T cruzi inh | AF4-AF9 inh | RanGTP-Impb inh | Calb FLC | Beta apoptosis | Vif TR-FRET
COc1cc(OC)c(C(=O)OCC(=O)Nc2ccc(N3CCOCC3)cc2)cc1OC | 0.1 | 1 | 12 | -3.6 | / | -4.3 | / | / | -1 | 2%
COc1ccc(OC)c(Nc2nc3nonc3nc2N2CCCCC2)c1 | -0.4 | / | / | / | -1 | / | -2.7 | -19 | 2 | ?
COc1cc(C(=O)Nc2ccc(S(=O)(=O)N(C)c3ccccc3)cc2)cc(OC)c1OC | 1.2 | -15 | -16 | -0.9 | 13 | -1.5 | -3.0 | 14 | 1 | ?
COc1ccc(OCC(=O)OCC(=O)NC2CCCC2)cc1 | 1.8 | / | / | / | / | -1.3 | / | / | -3 | -4%
COc1nccnc1NS(=O)(=O)c1ccc(NC(=S)NC(=O)/C=C/c2ccccc2)cc1 | 0.4 | / | / | / | 6 | / | -2.5 | -23 | -5 | 13%
COc1ccccc1OCC(=O)Nc1nnc(C2CCCC2)s1 | 0.3 | -3 | -4 | -0.3 | -7 | -2.1 | -0.8 | -1 | -2 | -2%

(listing goes on)
SMILES | A1 inh | rRNA inh HTS | rRNA inh HTS OD600 | rRNA inh HTS RFP | T cruzi inh | AF4-AF9 inh | RanGTP-Impb inh | Calb FLC | Beta apoptosis | Vif TR-FRET
CCCS(=O)(=O)c1nc(S(=O)(=O)c2ccc(C)cc2)c(N2CC(C)OC(C)C2)s1 (stereo not given) | -2.1 | -8 | 10 | -3.6 | 16 | 2.6 | -0.2 | -2 | -5 | /
CC(Sc1nnc(Cc2ccc3c(c2)OCO3)o1)C(N)=O (stereo not given) | -0.6 | 11 | 3 | -1.0 | -5 | 0.9 | 3.9 | -8 | -2 | -3%
Cc1ccc([C@H]2C(C(=O)O)=CC[C@@H](c3cccc(C)c3)N2S(=O)(=O)c2ccc(C)cc2)cc1 | 0.1 | 10 | 7 | -2.2 | / | -1.8 | / | / | -4 | -3%
NC(=O)c1ccc(NS(=O)(=O)c2ccccc2F)cc1 | -0.2 | / | / | / | -21 | / | 0.5 | -5 | -2 | 0%
COc1cc(/C=C/c2nc(N)nc(-c3ccccc3O)n2)cc(OC)c1OC | -1.6 | / | / | / | 24 | / | ? | -11 | -3 | /
O=C(C[C@@H]1C/C=C\C[C@H](Cc2ccc(F)cc2)C(=O)OCCNC1=O)NCCO | 1.5 | 2 | 8 | -0.7 | / | -1.5 | / | / | 0 | /
COCC(C)n1c(C)cc(C(=O)COC(=O)c2ccc(N3CCCC3=O)cc2)c1C (stereo not given) | 0.5 | / | / | / | -6 | / | 6.0 | -10 | -2 | -2%
CCOC(=O)c1c(C)n(C)c2ccc(O)c(CN3CCN(C)CC3)c12 | -0.2 | / | / | / | 3 | / | -0.6 | 40 | / | 9%
COC(=O)c1ccc(NC(=O)c2snnc2-c2ccccc2)cc1 | 0.0 | -30 | -39 | -5.0 | 0 | 3.7 | 1.7 | 5 | -7 | ?
CS(=O)(=O)N1CCN(C(=O)c2cc(-c3cccnc3)nc3ccc(Br)cc23)CC1 | 0.6 | 22 | 23 | 3.1 | -3 | -0.4 | ? | -5 | -6 | -3%
CC1CCCCN1C(=O)CSc1nnc(-c2cccnc2)n1C1CCCCC1 (stereo not given) | 0.3 | / | / | / | 9 | / | -4.2 | -7 | -6 | -1%
Cn1nccc1C(=O)N1CCc2c([nH]c3ccccc23)C1c1ccc(F)cc1 (stereo not given) | 0.7 | -16 | -34 | 2.3 | 15 | 8.2 | 1.9 | 38 | / | -2%
CC1Cc2ccccc2N1CC(=O)Nc1cccc(S(N)(=O)=O)c1 (stereo not given) | 0.1 | -1 | 4 | 1.1 | 0 | 1.7 | 4.0 | -2 | 6 | 26%
CCCCCc1ccc(-c2cn(Cc3ccc([N+](=O)[O-])cc3)nn2)cc1 | 0.1 | / | / | / | -8 | / | 8.4 | 15 | -3 | /
O=C(CN1CCN(c2ccccc2)CC1)N/N=C/c1cccc(F)c1 | 0.8 | / | / | / | -14 | / | 3.3 | -9 | 9 | 0%
O=C(NCc1ccc(F)cc1)Nc1cccc(Cl)c1 | 0.4 | -60 | -78 | -21 | 20 | -2.2 | -0.3 | -27 | -2 | -6%
O=C(Nc1cccc(NC(=O)c2cccnc2Cl)c1)c1ccco1 | -3.4 | / | / | / | -4 | / | -1.3 | 5 | -5 | -3%
Cc1ccc(S(=O)(=O)c2cc(C)cc(S(=O)(=O)Nc3ccc(C(=O)O)cc3)c2C)cc1 | 0.7 | -13 | -15 | -1.4 | -1 | -0.4 | 0.7 | 21 | 1 | /
Cc1c(C(=O)NC2CCS(=O)(=O)C2)oc2ccccc12 (stereo not given) | 1.5 | 0 | 3 | 4.1 | -8 | -4.2 | -0.9 | 2 | / | /
CCN(CC(=O)NC(=O)NCc1ccco1)Cc1ccccc1 | ? | 3 | 6 | -0.9 | 8 | 2.7 | 0.4 | / | -5 | 2%
COc1ccccc1C(CNc1ncnc2sc(C)c(C)c12)N(C)C (stereo not given) | 1.3 | 7 | 8 | 1.8 | 12 | 4.7 | 2.2 | -7 | -2 | -6%
COC(=O)c1cc(=O)n(Cc2ccc3c(c2)OCO3)c(=Nc2ccccc2)s1 | -0.2 | 3 | 11 | -6.1 | 35 | 21 | 0.3 | -2 | -3 | -6%
Cc1cc(C)c(NC(=O)c2cc(S(=O)(=O)N3CCOCC3)ccc2F)c(C)c1 | -0.6 | 0 | 4 | -0.2 | -10 | -2.4 | -0.7 | 9 | -10 | /
Cc1ccc(/C=C/C(=O)N2CC(C)CC(C)C2)o1 (stereo not given) | 1.8 | / | / | / | 3 | / | 3.7 | 6 | 39 | 25%
O=C(NCC1CCCO1)C(c1ccncc1)N(Cc1ccc(F)cc1)C(=O)CN1C(=O)c2ccccc2S1(=O)=O (stereo not given) | 0.5 | / | / | / | 7 | / | -0.5 | ? | -11 | 2%
CC(C)N(C(=O)/C=C/c1cccc([N+](=O)[O-])c1)C(C)C | -0.1 | -10 | -3 | -5.5 | 25 | 2.7 | -6.2 | -13 | -5 | 1%
S=C(NCc1ccc(Cl)cc1)NC1CCN(Cc2ccccc2)CC1 | 0.3 | -14 | -38 | 17 | 60* | 0.1 | 5.0 | -5 | 8 | /
O=C(NC1CCS(=O)(=O)C1)c1ccccc1Cl (stereo not given) | 0.1 | 11 | 13 | -0.8 | / | 0.1 | / | / | -4 | /
CCOc1nc(C)ccc1-c1noc(C)n1 | 0.2 | / | / | / | -1 | / | -3.4 | -13 | -6 | 4%
Cc1ccc(N2C(=O)C3CCC(C)(C2=O)C3(C)C)cc1C (stereo not given) | -0.5 | 15 | 10 | 1.1 | -5 | 0.4 | -1.2 | 0 | 2 | 13%
COc1ccccc1NC(=O)CSc1nnc(COc2ccccc2OC)n1C | -0.4 | -3 | -10 | -1.3 | 3 | -3.1 | -2.8 | -5 | -5 | 8%
CCC(=O)c1ccc(OCC(=O)Nc2ccccc2C(=O)N2CCCCC2)cc1 | -1.1 | -3 | 8 | -0.2 | 7 | 7.8 | -4.3 | -2 | 3 | 4%
